Screens deposited in PubChem by National Center for Advancing Translational Sciences (NCATS).
PINK1 expr mod: changes PINK1 expression; 410,000 compounds, 0.2% hits; Potency, µM (doses to about 76.6 µM), for inactives: at the top dose activation (PINK1 increase), hits mostly activators; AID 624263; PINK1 immunofluorescence, high-content cytometry, 24 h; active = well fitted activation curve with a large enough effect; inconclusive = small, poorly fitted or top-dose-only effect; inactive = flat fitted curve, though single readings scatter; cell line not stated here;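 note: potency is the fitted concentration of half-maximal effect; % of control where 0% means no effect; nearly all actives have a fitted effect of over 65% in size; a mitochondrial uncoupler was the plate control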
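Stable cell line, 250 cells/well, 12 h attachment; compounds pinned at 5 concentrations, 24 h; CCCP control. Fixed with nuclear dye, primary antibodies 12 h at 10 degrees C, secondary plus cell stain; laser-scanning cytometer read.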
CtBP-E1A blk: CtBP/E1A binding inhibition. 340,000 compounds, 0.49% hits. AID 651724. activity change, % (concentration not given with the values). AlphaScreen GST-E1A/His-CtBP binding, 1536-well; hits give low values; control for the full effect not named in the record; in the data active means activity change below about -65%; inconclusive means about -30% to -65%; inactive means above about -30%; note: % is set by controls: 0 for no effect and ±100 for the full control effect
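Steps: dispense buffer (Tris pH 8.0, NaCl 300 mM, TCEP 1 mM, BSA, Tween 20); add 5X protein mix (GST-E1A, His-CtBP, 125 nM each); pin 23 nL compound; 2 h at 37 °C, dark; add 5X beads (50 ug/mL); 1 h; read.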
Six1-Eya2 blk: inhibitors of human Six1/Eya2 interaction. AID 651725. 360,000 compounds, 0.56% hits. activity change, % (no concentration beside the values). AlphaScreen GST-Six1/His-Eya2 binding, biochemical; hits give low values; control for the full effect not named in the record. Q15475+O00167; in the data active = activity change below about -65%; inconclusive = about -30% to -65%; inactive = above about -30%; note: % is set by controls: 0 for no effect and ±100 for the full control effect
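Homogeneous AlphaScreen proximity assay pairing GST-Six1 with His-tagged Eya2 (added as 5X mix: 250 nM and 500 nM) in 50 mM Tris pH 8.0, 300 mM NaCl, 1 mM TCEP. Glutathione donor and nickel acceptor beads; 1 h, 37 °C, dark.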
TRPML1 blocker: human mucolipin-1 channel inhibition; TRPML1-inducible cells, Ca2+ dye fluorescence, FDSS; hits give low values; inhibition of EC80 agonist-evoked calcium signal; 390,000 compounds, 0.02% hits; Q9GZU1; activity change, negative = inhibition, % (no concentration beside the values); in the data active means activity change below about -50%; inconclusive means about -30% to -50%; inactive means above about -30%;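 note: stimulus is agonist 54-4 at its EC80 concentration; % is set by controls: 0 for no effect and ±100 for the full control effect; compound concentration not given in the record; the text of the record puts the active cut at -80%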
Target sequence (Q9GZU1 whole entry, looked up): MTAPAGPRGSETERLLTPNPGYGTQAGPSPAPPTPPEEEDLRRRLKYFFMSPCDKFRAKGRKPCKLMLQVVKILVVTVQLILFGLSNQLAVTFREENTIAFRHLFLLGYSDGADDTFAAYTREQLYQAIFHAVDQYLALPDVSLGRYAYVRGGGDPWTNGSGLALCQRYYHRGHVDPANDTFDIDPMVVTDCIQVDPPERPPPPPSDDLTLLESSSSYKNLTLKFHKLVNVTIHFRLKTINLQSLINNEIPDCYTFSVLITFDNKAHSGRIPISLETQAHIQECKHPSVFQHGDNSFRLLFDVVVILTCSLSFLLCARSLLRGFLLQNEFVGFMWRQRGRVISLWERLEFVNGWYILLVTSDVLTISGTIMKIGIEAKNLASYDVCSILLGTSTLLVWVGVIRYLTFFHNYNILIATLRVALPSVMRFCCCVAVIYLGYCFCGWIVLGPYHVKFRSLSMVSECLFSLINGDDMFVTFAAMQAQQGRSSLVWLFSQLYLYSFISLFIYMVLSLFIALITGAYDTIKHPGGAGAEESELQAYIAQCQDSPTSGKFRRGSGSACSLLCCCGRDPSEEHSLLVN
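Tet-induced TRPML1-DL cells loaded with Ca8 no-wash calcium dye were read kinetically on FDSS. Compound addition was followed by EC80 agonist 54-4 (4 uM final); inhibition was read over 110 s.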
D2 ag: activates the human D2 dopamine receptor; P14416; DiscoveRx PathHunter D2 beta-arrestin, luminescence, 90 min; 100% = 57 uM dopamine signal; activation, % (test concentration not listed); 360,000 compounds, 0.084% hits; in the data active = activation above about 40%; inconclusive = about 15% to 40%; inactive = below about 15%; note: compound concentration not given in the record; the text of the record calls up to 30% inactive
Target sequence (P14416 whole entry, looked up): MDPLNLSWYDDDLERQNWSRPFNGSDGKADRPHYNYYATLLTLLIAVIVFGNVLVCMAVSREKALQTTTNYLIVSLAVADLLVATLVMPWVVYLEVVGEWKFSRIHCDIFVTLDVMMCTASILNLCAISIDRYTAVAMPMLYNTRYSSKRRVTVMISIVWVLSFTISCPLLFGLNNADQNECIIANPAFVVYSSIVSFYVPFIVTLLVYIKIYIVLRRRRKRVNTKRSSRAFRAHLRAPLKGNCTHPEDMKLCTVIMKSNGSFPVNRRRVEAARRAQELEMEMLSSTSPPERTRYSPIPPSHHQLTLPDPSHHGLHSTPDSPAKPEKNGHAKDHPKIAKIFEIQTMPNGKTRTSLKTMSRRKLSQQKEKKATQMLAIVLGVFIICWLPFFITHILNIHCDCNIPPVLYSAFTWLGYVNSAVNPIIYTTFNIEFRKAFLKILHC
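Agonist mode: compounds alone added to overnight-plated D2 PathHunter cells for 90 min at 37 C, with 57 uM final dopamine (EC100) defining full response. Beta-arrestin recruitment detected by chemiluminescent reagent, read after 1 h at ambient temperature.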
TRPML1 ag: human mucolipin-1 channel agonism; Q9GZU1; TRPML1-expressing cells, Ca2+ dye fluorescence, FDSS; host cell line not named in the record; reference of the full effect not given here; activation, % (concentration not given with the values); 410,000 compounds, 0.12% hits; AID 624414; in the data active = activation above about 50%; inconclusive = about 30% to 50%; inactive = below about 30%; note: 0% is about no effect; the text of the record puts the active cut at 80%
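TRPML1-DL cells, Tet-induced overnight (~16 h, 37 degrees C), loaded 45-90 min at room temperature with Ca8 no-wash calcium dye plus quencher. FDSS fluorescence: 10 s baseline, compound pin-transfer, 110 s agonist read, then EC80 54-4 (4uM final) and 110 s antagonist read.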
* hit, by the source's call; [ ] = another dose, or the depositor's remark.

`N/C(=N\OC(=O)Cc1ccccc1[N+](=O)[O-])c1ccncc1` gave PINK1 expr mod 0.4%, CtBP-E1A blk 13.5, Six1-Eya2 blk -0.4, TRPML1 blocker -19.9, D2 ag 10.1 and TRPML1 ag -0.4.
For O=C1C(=Cc2cn(-c3ccccc3)nc2-c2ccc(OCc3ccccc3)cc2)SC(=S)N1CCS(=O)(=O)O the results were PINK1 expr mod 6.0%, CtBP-E1A blk -19.1, Six1-Eya2 blk -73.6*, TRPML1 blocker -13.1, D2 ag -1.6 and TRPML1 ag 12.0.
`O=C(NC1CCCCC1)c1ccc(-c2ccccc2F)o1` gave PINK1 expr mod 6.8%, CtBP-E1A blk -0.9, Six1-Eya2 blk -1.7, TRPML1 blocker 24.4, D2 ag -5.2 and TRPML1 ag 3.3.
For CCS(=O)(=O)c1ccccc1C(=O)N(Cc1cccnc1)c1nc2cc(C)c(C)cc2s1 the results were PINK1 expr mod 3.5%, TRPML1 blocker 13.7 and TRPML1 ag 0.6.
CCN(CC)c1cc(C)c2cc(NC(=O)c3cc(OC)cc(OC)c3)ccc2n1 was read as PINK1 expr mod 1.2%, TRPML1 blocker -3.0 and TRPML1 ag -0.8.
Screening Cc1ccc(NC(=S)NCCc2ccc(S(N)(=O)=O)cc2)cc1C returned PINK1 expr mod 1.3%, CtBP-E1A blk -2.4, Six1-Eya2 blk -2.7, TRPML1 blocker 12.4, D2 ag 1.2 and TRPML1 ag 1.1.
`COc1ccc(NC(=O)c2ccc3c(c2)C(=O)N(Cc2ccncc2)C3=O)cc1S(N)(=O)=O` gave PINK1 expr mod 2.3%, CtBP-E1A blk 2.1, Six1-Eya2 blk -1.5, TRPML1 blocker -11.1, D2 ag -1.9 and TRPML1 ag -0.6.
`CCn1c(SCC(=O)Nc2ccc3c(c2)OCO3)nnc1-c1cnccn1` gave PINK1 expr mod -3.1%, CtBP-E1A blk -18.1, Six1-Eya2 blk -9.6, TRPML1 blocker 7.5, D2 ag -0.6 and TRPML1 ag -1.5.
CCCCOc1cccc(C(=O)NC(=S)Nc2cccc(C(F)(F)F)c2)c1 was read as PINK1 expr mod 3.5%, CtBP-E1A blk 0.2, Six1-Eya2 blk 3.1, TRPML1 blocker -6.6, D2 ag -7.8 and TRPML1 ag 0.3.
`O=C(COc1ccccc1)NCC(=O)Nc1cccc(S(=O)(=O)NC2=NCCC2)c1` gave PINK1 expr mod -0.8%, CtBP-E1A blk 8.7, Six1-Eya2 blk 1.5, TRPML1 blocker 0.4, D2 ag 1.0 and TRPML1 ag 0.2.
Screening CN(/N=C/c1ccc([N+](=O)[O-])o1)c1ccccc1 returned PINK1 expr mod 1.2%, CtBP-E1A blk -6.5, Six1-Eya2 blk -6.2, TRPML1 blocker 9.7, D2 ag -5.9 and TRPML1 ag 1.1.
`O=C(O)c1ccc(NC(=S)NC(NC(=O)c2ccco2)C(Cl)(Cl)Cl)cc1` (stereo unspecified) gave CtBP-E1A blk -0.8, Six1-Eya2 blk 1.6, TRPML1 blocker -7.5, D2 ag 3.2 and TRPML1 ag -0.3.
`Cc1cc(C)n(CCc2nc(-c3ccc(-c4ccccc4)cc3)cs2)n1` gave PINK1 expr mod -0.2%, CtBP-E1A blk 4.8, Six1-Eya2 blk 4.9, TRPML1 blocker 20.5, D2 ag 0.2 and TRPML1 ag 2.3.
Screening N#C/C(=C\c1ccccc1Br)C(=O)NC1CC1 returned PINK1 expr mod 11.3%, CtBP-E1A blk -3.6, Six1-Eya2 blk -14.3, TRPML1 blocker -2.3, D2 ag 6.2 and TRPML1 ag -0.3.
Screening CN(c1ccccc1)S(=O)(=O)c1cccc(NC(=O)Cc2c(F)cccc2Cl)c1 returned PINK1 expr mod 1.1%, CtBP-E1A blk -3.0, Six1-Eya2 blk -5.1, TRPML1 blocker 6.7, D2 ag 2.5 and TRPML1 ag 1.3.
For Cc1cc(C)n2nc(CC(=O)NC3CCCC(C)C3C)nc2n1 (stereo unspecified) the results were PINK1 expr mod 9.6%[38.3 µM], CtBP-E1A blk 2.6, Six1-Eya2 blk -2.0, TRPML1 blocker 1.3, D2 ag -1.4 and TRPML1 ag 0.1.
Cn1cc(S(=O)(=O)Cc2ccc(F)cc2)c2ccccc21 was read as PINK1 expr mod -0.1%, CtBP-E1A blk 9.3, Six1-Eya2 blk 6.0, TRPML1 blocker 0.7, D2 ag -4.0 and TRPML1 ag -0.2.
Screening Cc1ccc(NC(=O)CSc2nnc(-c3cccnc3)n2CCN2CCCCC2)cc1 returned PINK1 expr mod 0.3%, CtBP-E1A blk -23.8, Six1-Eya2 blk -6.1, TRPML1 blocker -14.9, D2 ag -4.2 and TRPML1 ag -0.1.
For CC(C)(C)NC(=O)CN(C(=O)CS(=O)CC(=O)Nc1ccc(F)cc1)c1cccc(F)c1 (stereo unspecified) the results were PINK1 expr mod 0.5%, CtBP-E1A blk 10.5, Six1-Eya2 blk -3.5, TRPML1 blocker 2.3, D2 ag -0.7 and TRPML1 ag -0.5.
O=C(NCc1cn(-c2ccccc2)nc1-c1ccccc1)c1ccc([N+](=O)[O-])cc1 was read as PINK1 expr mod 0.6%, Six1-Eya2 blk -17.4, TRPML1 blocker 33.4, D2 ag 13.2 and TRPML1 ag -0.6.
Screening COc1ccccc1-c1c(C#N)c(N)nc2c1CCc1ccccc1-2 returned PINK1 expr mod 11.6%, CtBP-E1A blk 34.8, Six1-Eya2 blk 40.1, TRPML1 blocker -2.1, D2 ag -2.8 and TRPML1 ag -0.2.
For CCc1nonc1NC(=O)COc1ccc(Cl)c(C)c1 the results were PINK1 expr mod 3.3%, CtBP-E1A blk 15.3, Six1-Eya2 blk 8.1, TRPML1 blocker 10.5, D2 ag -2.9 and TRPML1 ag 0.3.
COc1ccc(S(=O)(=O)N(C)CC(=O)Nc2cccc(C(C)=O)c2)cc1C was read as PINK1 expr mod -0.3%[38.3 µM], CtBP-E1A blk -4.5, Six1-Eya2 blk -1.0, TRPML1 blocker 24.3, D2 ag 0.5 and TRPML1 ag -0.2.
`CCOC(=O)c1c(NC(=O)CSc2nnc(-c3ccncc3)n2Cc2ccco2)sc(C(C)=O)c1C` gave PINK1 expr mod -2.5%, CtBP-E1A blk -5.1, Six1-Eya2 blk -11.0, TRPML1 blocker -3.4, D2 ag -3.4 and TRPML1 ag 0.2.
For CCOC(=O)C1=C(c2ccccc2)NC(=O)NC1c1ccc(OC)cc1 (stereo unspecified) the results were PINK1 expr mod 0.9%, CtBP-E1A blk 4.3, Six1-Eya2 blk 3.4, TRPML1 blocker 1.0, D2 ag -3.1 and TRPML1 ag 1.4.
Screening COc1ccccc1CN1CCN(Cc2nc(-c3ccc(C)cc3)oc2C)CC1 returned PINK1 expr mod 2.5%, CtBP-E1A blk -20.0, Six1-Eya2 blk -12.4, TRPML1 blocker -0.3, D2 ag -4.5 and TRPML1 ag 1.7.
CC(=O)NC(=S)Nc1cccc2c(C)cc(C)nc12 was read as PINK1 expr mod -1.0%, Six1-Eya2 blk 2.9, TRPML1 blocker 23.7, D2 ag -2.7 and TRPML1 ag 0.2.
Screening NS(=O)(=O)c1ccc(NC(=O)Cn2ncc3c2-c2ccccc2OC3)cc1 returned PINK1 expr mod 9.5%, CtBP-E1A blk -11.1, Six1-Eya2 blk 6.2, TRPML1 blocker -7.2, D2 ag -3.7 and TRPML1 ag -0.3.
`O=c1nc2s/c(=C\c3ccc(-c4ccccc4[N+](=O)[O-])o3)c(=O)n2nc1-c1ccccc1` gave PINK1 expr mod 3.8%, CtBP-E1A blk -19.5, Six1-Eya2 blk -11.0, TRPML1 blocker 2.1, D2 ag 3.8 and TRPML1 ag 1.1.
`COc1ccc(OC)c(CCNc2nc3cc(OC)c(OC)cc3c3nc(-c4cccnc4)nn23)c1` gave PINK1 expr mod 2.1%, TRPML1 blocker 33.7 and TRPML1 ag 0.3.
For CC(c1nc2ccccc2c(=O)[nH]1)N1CCCN(S(=O)(=O)c2ccc(F)cc2)CC1 (stereo unspecified) the results were PINK1 expr mod 1.2%, Six1-Eya2 blk -0.1, TRPML1 blocker -12.9, D2 ag -2.2 and TRPML1 ag -1.8.
For COc1ccc(C(=O)CC2OC(=O)c3c2ccc(OC)c3OC)cc1 (stereo unspecified) the results were PINK1 expr mod -0.4%, CtBP-E1A blk -0.1, Six1-Eya2 blk -2.3, TRPML1 blocker -2.0, D2 ag -3.7 and TRPML1 ag 0.2.
CC1CC(C)CN(C(=O)c2cc(-c3ccncc3)nc3ccccc23)C1 (stereo unspecified) was read as PINK1 expr mod 5.0%, CtBP-E1A blk 0.0, Six1-Eya2 blk -3.5, TRPML1 blocker 8.0, D2 ag 1.3 and TRPML1 ag 1.3.
`CCOC(=O)N1CCC(NC(=O)c2ccc3c(c2)N=C(CC)c2ccccc2S3)CC1` gave PINK1 expr mod 2.2%, CtBP-E1A blk -10.0, Six1-Eya2 blk -6.3, TRPML1 blocker -14.6, D2 ag -2.0 and TRPML1 ag 1.3.
Cn1cc(C(=O)O)c(=O)c2cc(S(=O)(=O)N3CCCCC3)ccc21 was read as PINK1 expr mod 0.8%, TRPML1 blocker 4.7 and TRPML1 ag 0.3.
For O=C(Nc1cc(S(=O)(=O)N2CCCC2)ccc1Cl)c1cc(F)c(F)c(F)c1F the results were PINK1 expr mod 5.5%, CtBP-E1A blk 4.6, Six1-Eya2 blk 4.4, TRPML1 blocker 24.9, D2 ag 1.4 and TRPML1 ag -1.0.
`O=C(CN1CCCCC1)NCCNC(=O)CN1CCCCC1` gave PINK1 expr mod -2.1%, CtBP-E1A blk 1.3, Six1-Eya2 blk -0.1, TRPML1 blocker -5.6, D2 ag -0.8 and TRPML1 ag 0.1.
Screening COc1cc(S(=O)(=O)NCCCn2ccnc2)ccc1F returned PINK1 expr mod 0.0%, Six1-Eya2 blk -8.2 and D2 ag -1.5.
For Cc1cnn(CCC(=O)NNC(=S)Nc2ccc(F)cc2)c1 the results were PINK1 expr mod -0.8%, CtBP-E1A blk 10.3, Six1-Eya2 blk 1.8, TRPML1 blocker -11.0, D2 ag -10.3 and TRPML1 ag 0.9.
Cc1cccc(C(C)Nc2ccc([N+](=O)[O-])cn2)c1 (stereo unspecified) was read as PINK1 expr mod -0.6%, CtBP-E1A blk -10.0, Six1-Eya2 blk -1.5, TRPML1 blocker -9.4, D2 ag -1.0 and TRPML1 ag 3.8.

Retrieved by structure from above (2):
`CCOC(=O)c1c(NC(=O)CSc2nnc(-c3ccncc3)n2Cc2ccco2)sc(C(C)=O)c1C` gave PINK1 expr mod -2.5%, CtBP-E1A blk -5.1, Six1-Eya2 blk -11.0, TRPML1 blocker -3.4, D2 ag -3.4 and TRPML1 ag 0.2.
Screening COc1ccccc1-c1c(C#N)c(N)nc2c1CCc1ccccc1-2 returned PINK1 expr mod 11.6%, CtBP-E1A blk 34.8, Six1-Eya2 blk 40.1, TRPML1 blocker -2.1, D2 ag -2.8 and TRPML1 ag -0.2.

No enrichment for hits; about 1% have a hit in one of these screens.
